High-throughput results (PubChem BioAssay)
AID504770 = E. coli YBA685 growth inhibition, screen for V. cholerae RctB inhibitors; E. coli YBA685 rctB-dependent plasmid, OD600 growth, 3 h; active compounds read low; z-score (no concentration beside the values); hit rate 0.27% among 130,000;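 active = z-score under -2 on both plates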;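 note: wells of about 30 µL received 100 nL stock; score is relative to mean and SD of the test wells; the first replicate is given; strong numbers were not always called active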
Ba CapD inh = inhibitors of Bacillus anthracis CapD enzyme; purified CapD enzyme, fluorescence intensity read-out; active compounds read low; some hits fall short of the stated cut; z-score (no concentration beside the values); hit rate 0.23% among 140,000;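 active = z-score under -4 in either of two replicates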;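 note: stock transfer was 100 nL into about 40 µL; score is relative to mean and spread of the plate; one replicate is shown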
The depositor's hits bear a star; · = not tested or not shown; & = joins results of further samples.

The line under a structure holds: AID504770, Ba CapD inh
(1) CC1CC(C)CN(C(=O)c2ccco2)C1 (centres undefined)
    -0.15, 0.11
(2) CC1(C)CC(=O)C2=C(C1)NC1=C(C(=O)CC(C)(C)C1)C2c1ccc([N+](=O)[O-])cc1
    ·, -0.28
(3) Cc1[nH]c2ccccc2c1C(=O)CSc1nc2ccccc2o1
    1.9, 0.12
(4) CC(Sc1nnc(C2CCCCC2)n1N)C(=O)NC(N)=O (centres undefined)
    0.65, ·
(5) CC(=O)NCc1c(I)c(NC(C)=O)c(I)c(C(=O)O)c1I
    0.15, ·
(6) O=C(/C=C/c1ccc2c(c1)OCO2)N1CCN(CCN2C(=O)c3cccc4cccc(c34)C2=O)CC1
    ·, -0.45
(7) Cc1ccc2c(c1)-c1c(cnn1CC(=O)NCCc1ccc(S(N)(=O)=O)cc1)CO2
    0.65, -0.065
(8) N#Cc1cccc(NC(=O)C2SC(=NCc3ccco3)C(C(=O)N3CCCC3)=C2N)c1 (centres undefined)
    -0.75, ·
(9) CCCc1cc(C2C(C#N)=C(N)Nc3oc(OC)nc32)ccc1OC(C)C (centres undefined)
    -1.2, -0.2
(10) O=[N+]([O-])c1cccnc1Oc1ccc(Cl)cc1
    ·, -1

As entered above:
`CC(Sc1nnc(C2CCCCC2)n1N)C(=O)NC(N)=O` (centres undefined) in AID504770 → 0.65
`CC(=O)NCc1c(I)c(NC(C)=O)c(I)c(C(=O)O)c1I` in AID504770 → 0.15
`O=C(/C=C/c1ccc2c(c1)OCO2)N1CCN(CCN2C(=O)c3cccc4cccc(c34)C2=O)CC1` in Ba CapD inh → -0.45
`O=[N+]([O-])c1cccnc1Oc1ccc(Cl)cc1` in Ba CapD inh → -1

Continued.
The line under a structure holds: AID504770, Ba CapD inh
(11) COc1ccccc1/C=C1/C(=O)N(c2cc(C)cc(C)c2)C(c2cccc([N+](=O)[O-])c2)S1(=O)=O (centres undefined)
    ·, -0.52
(12) C=CCN1C(=O)C2C(C(=O)NCc3ccccc3)C3C=CC2(O3)C1C(=O)NC1CCCC1 (centres undefined)
    -0.3, ·
(13) Fc1ccc(CN2CCCN(Cc3ccc(F)cc3)C2c2cccs2)cc1
    -1.4, -0.39
(14) CCCc1cc(C(=O)Nc2ccc(C)cc2)no1
    0.85, -0.56
(15) Cc1cccc(NC(=O)CCNS(=O)(=O)c2ccc3[nH]c(=O)oc3c2)c1
    0.1, 0.62
(16) S=C(NCCc1ccncc1)Nc1cc(Cl)ccc1Cl
    ·, 0.4
(17) CCOC(=O)C1=NN(c2ccc(C)cc2)CC1C(=O)OC (centres undefined)
    -0.15, ·
(18) COc1ccc(-n2c(=S)[nH]c3sc4c(c3c2=O)CCN(Cc2ccccc2)C4)cc1
    ·, 2
(19) CCc1ccc(C=C2C(=O)N(C)C(=S)N(C)C2=O)cc1
    0.2, 0.41
(20) COc1ccccc1-c1nnc(C2CCN(C(=O)c3ccccc3)CC2)o1
    -0.9, -0.62
(21) CCOc1cc(S(=O)(=O)NCCOC)c(OCC)cc1C
    -0.7, -0.37
(22) COc1ccccc1N1CC(C(=O)Nc2nc(C)cs2)CC1=O (centres undefined)
    0.45, ·
(23) O=C(Cn1ncc2c([nH]c3ccccc32)c1=O)NCCc1ccsc1
    0.55, 2.2
(24) CCC(C)NC(=O)C1CCN(Cc2cc(OC)ccc2OC)CC1 (centres undefined)
    -0.55, ·
(25) Cc1cc(C)c2c(=O)[nH]c(SCC(=O)NCCc3ccccc3)nc2n1
    -0.15, ·
(26) CCOC(=O)c1ccc(NC(=O)C2C(=O)N(C)C3(C)CC2c2ccccc2O3)cc1 (centres undefined)
    0.55, 0.03
(27) O=C(Nc1ccccc1)c1cccn(Cc2cccc(C(F)(F)F)c2)c1=O
    ·, 0.73
(28) O=C(OCC(=O)N1CCCc2ccccc21)C1COc2ccccc2O1 (centres undefined)
    -0.5, ·
(29) O=C(NCCCN1CCc2ccccc2C1)c1ccc(CS(=O)(=O)c2ccc(Br)cc2)o1
    -0.7, -0.8
(30) CCOc1cc(C)c2c(=O)c(-c3ccccn3)c(C)oc2c1
    1.1, -0.04
(31) CCOc1ccccc1C(=O)NCCc1cc2ccc(C)c(C)c2[nH]c1=O
    -0.7, 0.29
(32) Cc1cccc(-c2nc(CSc3nc4ccncc4[nH]3)c(C)o2)c1
    -0.95, -0.74
(33) COC(=O)c1ccc(N2CCCC2=O)cc1
    0.1, -0.29
(34) O=C(COC(=O)CCN1C(=O)C2CC=CCC2C1=O)Nc1cc(Cl)cc(Cl)c1 (centres undefined)
    -0.15, ·
(35) COc1ccc(Cl)cc1NC(=O)c1nc2nc(-c3ccccc3)cc(C(F)(F)F)n2n1
    -0.2, -0.31
(36) CC(C)(C)c1ccc(C(=O)NC2CCN3CCCc4cccc2c43)cc1 (centres undefined)
    ·, 0.83
(37) O=C1CSC(c2ccc3c(c2)OCO3)N1c1ccc(Cl)cc1 (centres undefined)
    0.65, -0.76
(38) CCN(CC(=O)Nc1ccc(N2CCOCC2)cc1)C(=O)c1nc2nccc(C)n2n1
    0.05, ·
(39) O=C(CN1CCOCC1)Nc1ccc(Cl)cc1C(=O)c1ccccc1Cl
    ·, -0.42
(40) COc1ccc(/C=C/C#N)cc1OC
    1.6, 5.4
(41) COc1cccc(-c2cc(C#N)on2)c1OC
    -1.4, ·
(42) Cc1ccccc1NC(=O)/C=N/O
    0.05, -0.01
(43) O=C(NCc1ccc2c(c1)OCO2)c1ccc2c(=O)n3c(nc2c1)CCCCC3
    0.35, -1
(44) CCOC(=O)c1ccc(-c2c(C(=O)OCC)oc3cc(O)c(CC)cc3c2=O)o1
    2.9, ·
(45) O=S(=O)(c1ccc(Cl)cc1)N1c2ccccc2Sc2ccc(C(F)(F)F)cc21
    -0.45, -0.72
(46) COC(=O)Nc1ccc(S(=O)(=O)NCC(OC)OC)cc1
    -1.8, ·
(47) CCOC(=O)CSc1nc2c(sc3ccccc32)c(=O)n1CCCOC(C)C
    0.3, 0.94
(48) CCCCOc1ccc(OCCCC)c2c1nc(-c1ccccc1N)c(=O)n2C
    ·, -0.33
(49) COc1ccccc1CNc1cnn(C23CC4CC(CC(C4)C2C(=O)O)C3)c(=O)c1Cl (centres undefined)
    0.2, -1.5
(50) CN1CCCN(C(=O)/C=C/c2ccc(Cl)cc2Cl)CC1
    -1, -0.87

Reformatted field by field: 4 of the compounds above
(41) COc1cccc(-c2cc(C#N)on2)c1OC
  AID504770: -1.4; Ba CapD inh: ·

(49) COc1ccccc1CNc1cnn(C23CC4CC(CC(C4)C2C(=O)O)C3)c(=O)c1Cl (centres undefined)
  AID504770: 0.2; Ba CapD inh: -1.5

(47) CCOC(=O)CSc1nc2c(sc3ccccc32)c(=O)n1CCCOC(C)C
  AID504770: 0.3; Ba CapD inh: 0.94

(43) O=C(NCc1ccc2c(c1)OCO2)c1ccc2c(=O)n3c(nc2c1)CCCCC3
  AID504770: 0.35; Ba CapD inh: -1

The list continues.
The line under a structure holds: AID504770, Ba CapD inh
(51) COc1ccc(CN=Cc2ccc(NC(C)=O)cc2)cc1
    0.5, 3.1
(52) O=C(CSc1ccc(Cl)cc1)Nc1cccc(-c2nc3ncccc3o2)c1
    1.1, 0.41
(53) C[C@]12CC=CCC1CCC1C2CC[C@](C)(C(=O)O)C1/C=C1/Nc2ccccc2C1=O (some centres undefined)
    ·, -0.055
(54) NS(=O)(=O)c1ccc(CCNc2ncnc3c2c(-c2ccccc2)cn3-c2ccc(Br)cc2)cc1
    ·, -0.07
(55) Nc1c(-c2ccc(Cl)cc2)nnn1-c1ccccc1
    -1.4, 0.64
(56) CCCCN1C2=NCCN2c2ccccc21
    ·, 0.11
(57) CC1CCCCC1NC(=O)CSc1nnc(-c2ccccc2Br)o1 (centres undefined)
    -0.6, ·
(58) O=C1Nc2ccc(Cl)cc2S/C1=C/Nc1ccccc1C(F)(F)F
    ·, -0.24
(59) Cc1cc(N)n(C(C)(C)C)n1
    1&-0.55, 0.36&-0.42
(60) O=C(CSc1nc2[nH]ncc2c(=O)n1-c1ccc(Br)cc1)Nc1ccccc1C(F)(F)F
    ·, -0.7
(61) O=C(O)CCc1ccc(Br)cc1
    0.3, ·
(62) COc1ccc(OC)c(C(=O)Nc2ccc(F)c(Cl)c2)c1
    -1.1, 5.1
(63) CC1(C)C2CCC1(CS(=O)(=O)NC1CCCC1)C(=O)C2 (centres undefined)
    0.35, 0.16
(64) Cc1cccc(OCC(=O)NCC(C)C)c1C
    0.1, 0.62
(65) CCOc1ccc2nc(Cl)c(CN(Cc3ccco3)C(=O)c3ccco3)cc2c1
    1.8, ·
(66) CC(C)(C)c1cc2nc3c(c(=O)n2[nH]1)CN(C1CCCCC1)C3=O
    -0.45, 9.2
(67) COc1ccc(-c2cn3c(C)c(C(=O)N4CCCc5ccccc54)sc3n2)cc1
    0.1, ·
(68) CCNC(=S)N1CCCCC1CO (centres undefined)
    -0.9, 0.71
(69) O=C1c2cccc(OCC(=O)N3CCCc4ccccc43)c2CCN1Cc1cccnc1
    0.9, ·
(70) O=C(OCc1cccc(COC(=O)c2ccc(Cl)cc2)n1)c1ccc(Cl)cc1
    1.8, -0.38
(71) NS(=O)(=O)c1ccc(Nc2nc3sc4c(c3c(=O)s2)CCCC4)cc1
    2.8, -0.73
(72) COCCNC(=O)c1ccc(Cn2c(SCC(=O)c3ccccc3)nc3ccc(Br)cc3c2=O)cc1
    ·, -2
(73) Cc1ccccc1OCCSc1nc(C(C)C)cc(=O)[nH]1
    -0.9, ·
(74) Cc1cccc(-n2ccnc2SCC(=O)N2CCN(C(=O)C3COc4ccccc4O3)CC2)c1 (centres undefined)
    0, ·
(75) CC(=O)Nc1ccc2c(c1)nc(C)n2C
    -0.7, 0.32
(76) COc1ccc(N)cn1
    1.8, 47
(77) Cc1ccc2cc3c(N)[nH]nc3nc2c1
    -0.5, ·
(78) CCCOc1ccc(/C=N/NC(=O)CN2CCCCC2)cc1
    1.6, ·
(79) CCc1ccc(NC(=O)CN(c2ccccc2)S(=O)(=O)N(C)C)cc1
    -1.2, 0.14
(80) CCc1c(C#N)c(N)nc2sc(C(=O)OCc3ccccc3)c(N)c12
    1.2, 1.2
(81) Clc1ccc(Sc2nc(-c3cccs3)ns2)cc1
    -1.1, -0.16
(82) Cc1nc(-c2c(C(=O)NNC(=O)OCCN3CCN(Cc4ccc([N+](=O)[O-])cc4)CC3)noc2C)cs1
    ·, -1
(83) CCC(C)NC(=O)COc1cc(=O)n(C)c2ccccc12 (centres undefined)
    0.5, 0.28
(84) FC(F)(F)c1ccc(-c2ncc(-c3cnc4ccccc4n3)c(-c3ccccc3)n2)cn1
    ·, -0.41
(85) COc1ccccc1Nc1nc2c(S(=O)(=O)c3c(C)cc(C)cc3C)nnn2c2ccccc12
    1.1, 0.22
(86) Cc1ccc(C(=O)c2cnc3ccccc3c2N2CCCC2)cc1
    1.6, -1.4
(87) CCCCCCc1cnc(-c2ccc(OC(F)(F)F)cc2)nc1
    ·, -0.4
(88) C=CCN1C(=O)NC(NC(=O)c2ccccc2)(C(F)(F)F)C1=O (centres undefined)
    -0.8, -0.81
(89) CCOc1ccc(N=c2scc(-c3ccc(S(=O)(=O)N4CCCCC4)cc3)n2CCCO)cc1
    0.85, -0.05
(90) CC(C)(C)c1ccc(OS(=O)(=O)c2ccc(-c3csnn3)s2)cc1
    ·, -0.21
(91) O=C(O)Cn1c(=S)sc2ccccc21
    -0.75, 0.28
(92) O=C(NCc1ccccc1)c1cccc(OCC(=O)N2CCOCC2)c1
    -0.45, ·
(93) Nc1sc2c(c1C(=O)N1CCOCC1)CCCC2
    0.9, ·
(94) CCN(CC)C(=O)COc1ccc2c(c1)C(=O)CC(C)(C)O2
    0.05, 0.01
(95) CCOC(CNC(=O)C(c1ccccc1)c1ccccc1)(OCC)c1ccccn1
    ·, -0.21
(96) CCOC(=O)c1c(-c2ccccc2)cn2c1SCC2=O
    -0.65, ·
(97) COC(=O)c1scc(C)c1NC(=O)C(C)Sc1nc(C)cc(C)c1C#N (centres undefined)
    -0.1, -0.41
(98) CCc1cccc(C)c1NC1=NCCC(=O)S1
    -0.7, 0.53
(99) CNC(=O)c1cnn(-c2nc(-c3ccccc3)cs2)c1C(F)(F)F
    ·, 9.8
(100) CN(Cc1ccccc1)c1nnnn1-c1ccccc1
    1.1, ·

Going on with the list:
The line under a structure holds: AID504770, Ba CapD inh
(101) CCCCC(=O)Nc1ccc2c(c1)OCCO2
    -0.5, 0.44
(102) c1ccc(-c2noc(C3CCCO3)n2)nc1 (centres undefined)
    -0.1, ·
(103) O=S(=O)(/C=C/c1ccccc1)Nc1ccc(F)cc1
    2.2, -0.62
(104) Cc1oc(C)c(C(N)=O)c1C(N)=O
    -0.35, ·
(105) O=S(=O)(c1ccc(F)c(F)c1)N1CCN(c2ncnc3sccc23)CC1
    ·, -0.36
(106) N#Cc1c(N)nc2sc(C(=O)c3ccccc3)c(N)c2c1-c1ccccc1
    ·, -0.27
(107) Cc1nc(SCC(=O)NCCc2ccccc2)c2c3c(sc2n1)CCC3
    ·, -0.02
(108) COc1cccc(C(=O)O/N=C2\CCS(=O)(=O)c3sccc32)c1
    ·, -0.48
(109) N#CCn1nc2ccccc2n1
    0.2, -0.12
(110) Cc1cccc(C(=O)Nc2nc3ccc(C)cc3c(=O)[nH]2)c1
    -0.6, 0.19
(111) COc1ccc(N2C(=O)NC(=O)/C(=C\c3cc(Cl)cc(OC)c3O)C2=O)cc1
    ·, -0.6
(112) Cc1cc(C)c2sc(N3CCN(C(=O)C(C)(C)C)CC3)nc2c1
    -0.5, ·
(113) CC(C)(C)C(=O)CSc1nc(N)c(C#N)c(-c2cccs2)c1C#N
    0.45, 32
(114) O=C(c1ccccc1Cl)N1N=C(C(F)(F)F)CC1(O)c1ccc(F)cc1 (centres undefined)
    ·, -0.83
(115) Cc1ccc(-c2cc(C(=O)N3CCCCC3C)c3ccccc3n2)cc1 (centres undefined)
    -0.8, 14
(116) CCC(C)NC(=O)C1CCC(CNS(=O)(=O)c2ccc(C)cc2)CC1 (centres undefined)
    -0.5, 0.33
(117) Oc1c(C=Nc2ccccc2)sc2ccccc12
    2.5, 0.32
(118) O=C(Nc1nc(-c2ccccc2)cs1)c1ccco1
    0.8, 0.39
